NPYLR7 ag: agonists of mosquito NPYLR7 receptor, primary screen, cell-based, Aedes aegypti, calcium fluorescence, mosquito biting behavior. Aedes aegypti neuropeptide Y-like receptor 7 (NPYLR7). activation, % at 10 µM. hit rate 0.15% among 270,000. AID 1259423, 2018. HEK293T NPYLR7/Galpha15, GCaMP6s calcium fluorescence; in the data active means activation above about 40%;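 further: 0% = vehicle and 100% = reference agonist at the receptor; some compounds past the cut are filed as inactive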
NPYLR7 ag max-min: further read-out of NPYLR7 ag, marked with its call; activation, %; measured here: Max-Min RFU normalised activation; some inactives read as strong as hits;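 span of the calcium signal over five minutes; 0% = vehicle and 100% = native peptide agonist; compound fluorescence can raise it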
Numbers without * were called inactive; & = joins results of further samples. These rows are one share of the data. The share of hits here may be higher or lower than overall.

SMILES | NPYLR7 ag | NPYLR7 ag max-min
CCC(NC(=O)Cc1ccon1)c1ccccc1Br (configuration not stated) | -10&7 | -13&4
Cc1ccc(N=CC(C#N)c2nc3ccccc3n2C)cc1 (configuration not stated) | 0 | -4
O=C(C1CCCCO1)N1CCn2nc(-c3nc4ccc(F)cc4[nH]3)cc2C1 (configuration not stated) | 1 | 0
OCCn1cnc(-c2ccccc2)c1-c1ccc(C2CCCCO2)s1 (configuration not stated) | 6 | 5
Cc1noc(C)c1S(=O)(=O)NC1CCCc2c1cnn2C (configuration not stated) | -29 | -26
Cc1ccc(F)c(S(=O)(=O)NC(=O)C2(C)CCN2C(=O)Cc2ccc(C(C)(C)C)cc2)c1 (configuration not stated) | -4 | -8
O=C(CCc1csc(NC(=O)c2ccc[nH]c2=O)n1)NCc1cccnc1 | -11 | -19
O=C(c1ccc(Cl)c(F)c1)N1CCC(n2nc(-c3ccccc3)cc2-c2ccccc2)CC1 | 7 | 5
Cc1ccc(C2=NN(C(=O)CN3CCCC3)C(c3cccn3C)C2)cc1C (configuration not stated) | -4 | 8
C=CCN(CC(=O)N1CCc2sccc2C1c1ccccc1)C(=O)c1cccc(Br)c1 (configuration not stated) | 22 | 28
COc1ccc(CNC(=O)CCn2cc([N+](=O)[O-])nc2C)cc1 | 10 | 3
CC(C)c1ccc(CN2CCC2(C)C(=O)Nc2cccc3cccnc23)cc1 (configuration not stated) | 3 | 1
Cc1ccccc1-c1ccc(-n2cncc2C(=O)N2CCCC(C)C2)cc1 (configuration not stated) | 1 | 4
COCCN(Cc1csc(COc2ccccc2C(C)C)n1)C(=O)c1ccc(F)cc1 | 4 | 12
O=C(O)CCNC(=O)c1ccccc1 | -28 | -30
CCCCc1ncc2c(n1)CCN(Cc1cccc(Cl)c1)C2=O | -3 | -7
CCOc1ccc2nc(N3CCN(C(=O)C4=COCCO4)CC3)sc2c1 | -3 | -3
O=C(c1cc(-c2ccccc2F)nc2cc(-c3ccccc3)nn12)N1CCN(c2cccc(Cl)c2)CC1 | 4&19 | 7&27
O=c1c2nnn(Cc3ccc(Cl)cc3)c2ncn1Cc1ccc(C(F)(F)F)cc1 | 7 | 6
COc1ccc(CN(CCc2c[nH]c3ccccc23)C(=O)CN(CC(C)C)C(=O)C2C[C@H]2c2ccccc2)cc1 (some centres not stated) | 21 | 27

17 of the compounds above, with two lines to a compound.
Below each SMILES – NPYLR7 ag	NPYLR7 ag max-min
OCCn1cnc(-c2ccccc2)c1-c1ccc(C2CCCCO2)s1 (configuration not stated)
 : 6	5
Cc1noc(C)c1S(=O)(=O)NC1CCCc2c1cnn2C (configuration not stated)
 : -29	-26
Cc1ccc(F)c(S(=O)(=O)NC(=O)C2(C)CCN2C(=O)Cc2ccc(C(C)(C)C)cc2)c1 (configuration not stated)
 : -4	-8
O=C(CCc1csc(NC(=O)c2ccc[nH]c2=O)n1)NCc1cccnc1
 : -11	-19
O=C(c1ccc(Cl)c(F)c1)N1CCC(n2nc(-c3ccccc3)cc2-c2ccccc2)CC1
 : 7	5
Cc1ccc(C2=NN(C(=O)CN3CCCC3)C(c3cccn3C)C2)cc1C (configuration not stated)
 : -4	8
C=CCN(CC(=O)N1CCc2sccc2C1c1ccccc1)C(=O)c1cccc(Br)c1 (configuration not stated)
 : 22	28
COc1ccc(CNC(=O)CCn2cc([N+](=O)[O-])nc2C)cc1
 : 10	3
CC(C)c1ccc(CN2CCC2(C)C(=O)Nc2cccc3cccnc23)cc1 (configuration not stated)
 : 3	1
Cc1ccccc1-c1ccc(-n2cncc2C(=O)N2CCCC(C)C2)cc1 (configuration not stated)
 : 1	4
COCCN(Cc1csc(COc2ccccc2C(C)C)n1)C(=O)c1ccc(F)cc1
 : 4	12
O=C(O)CCNC(=O)c1ccccc1
 : -28	-30
CCCCc1ncc2c(n1)CCN(Cc1cccc(Cl)c1)C2=O
 : -3	-7
CCOc1ccc2nc(N3CCN(C(=O)C4=COCCO4)CC3)sc2c1
 : -3	-3
O=C(c1cc(-c2ccccc2F)nc2cc(-c3ccccc3)nn12)N1CCN(c2cccc(Cl)c2)CC1
 : 4&19	7&27
O=c1c2nnn(Cc3ccc(Cl)cc3)c2ncn1Cc1ccc(C(F)(F)F)cc1
 : 7	6
COc1ccc(CN(CCc2c[nH]c3ccccc23)C(=O)CN(CC(C)C)C(=O)C2C[C@H]2c2ccccc2)cc1 (some centres not stated)
 : 21	27

(listing goes on)
SMILES | NPYLR7 ag | NPYLR7 ag max-min
CCN(CC)S(=O)(=O)c1c(C)nn(CCC2CCCCN2C)c1C (configuration not stated) | 3 | 2
CCCCC(=O)N1CCN(S(=O)(=O)c2cc3c(cc2Cl)NC(=O)CO3)CC1 | 3 | 0
CCn1c(CCNC(=O)CCc2ccsc2)n[nH]c1=S | 13 | 10
COc1cc2c(cc1OC)C(c1cccc(Cl)c1)N(C(=O)c1ccccc1C(F)(F)F)CC2 (configuration not stated) | 10 | 6
COc1cc(-c2nc(C(N)=O)c3[nH]c(=O)n(-c4ccc(F)cc4)c3n2)cc(Br)c1O | 0 | -2
CCCC(C)(CO)NCc1c(F)cccc1N1CCCC1 (configuration not stated) | 7 | 6
Cc1ccc(-c2nnc(SCc3c(C)noc3C)o2)cc1 | 1 | 6
COc1ccc(C2=NN(c3nc(-c4ccccc4)c4cc(C)ccc4n3)C(c3ccc([N+](=O)[O-])cc3)C2)cc1 (configuration not stated) | 2 | 11
O=C(CCc1ccccc1)N(Cc1nccn1Cc1cccc(Cl)c1)CC1CC1 | -16 | -14
COc1cccc(N2CCN(c3cc(Oc4cc(C)ccc4Cl)ncn3)CC2)c1 | -12 | -2
CN1[C@@H](CCC(=O)N2CCN(c3ccccc3)CC2)CNC(=O)[C@H]2NCC[C@H]21 | -11 | -13
C=CCn1c(SCc2nnc(-c3ccccc3)o2)nc2ccsc2c1=O | 6 | 6
CCOc1ccc(N(Cc2nnc3n2CCCCC3)C(=O)Nc2ccc(OC)cc2)cc1 | 5 | 4
CCc1ccc(CNCC2CCCN2CC)cc1 (configuration not stated) | -15 | -22
Cc1ccc(C2(C(F)(F)F)Cc3nc4ccccc4n3C(=O)N2)cc1 (configuration not stated) | -3 | -3
Cc1ccc2nc(C)c(C(=O)N[C@@H](Cc3ccc(O)cc3)C(=O)O)cc2c1 | 2 | -6
COc1ncc(C(=O)N(Cc2cnn(C)c2)C(C)C)cn1 | 11 | 0
Cc1ccc(COC2CCCN(C(=O)c3ccco3)C2)cc1 (configuration not stated) | 8 | 5
CC(=O)N1C(=O)C(=Nc2ccc(C)cc2O)c2cc(C)c(Br)cc21 | 21 | 12
Cn1ccnc1CN(Cc1ccc(S(C)(=O)=O)cc1)C1CC1 | 5 | 2
CCNC(=O)OC1CN(C(=O)c2cc(C)oc2C)CCC(=O)N(C)c2ccccc21 (configuration not stated) | 5 | 14
CCCNc1ncc(CN2CCOC(Cc3cccc(F)c3)C2)cn1 (configuration not stated) | 13 | 12
Cc1cc2nc(-c3cccs3)cc(-c3nnc(SCc4c(F)c(F)c(F)c(F)c4F)n3C)c2cc1C | -6 | -9
CCCCCCOCCOCCOC(=O)N1CCC2(CC1)CC(=O)c1cc(Cl)c(C)cc1O2 | 4 | -2
Cn1c(=O)c2c(-c3ccc(Cl)cc3)c(Nc3ccccc3)oc2n(C)c1=O | -6 | -8
CNc1ccc2ncc(-c3ccccc3F)n2n1 | -2 | -3
Cc1ccccc1-n1ncc2c(C)nn(Cc3ccc(F)cc3)c(=O)c21 | -7 | -6
COCCCn1c(=O)c(C#N)cc2c(=O)n3cc(C)ccc3nc21 | 4 | 1
CCCn1c(=O)[nH]c(=O)c2c1nc(C)n2CCOC | 2 | 8
Nc1nc(SCC(=O)Nc2ccc(F)cc2F)[nH]c(=O)c1NC(=O)c1ccc(C(F)(F)F)cc1 | -3 | -4
O=C(NCCSCc1c(Cl)cccc1Cl)c1cncn1-c1ccc(-c2ccc(F)c(F)c2)cc1 | 11 | 10
CCOCCCn1c(=N)c(C(=O)OCC)cc2c(=O)n3cccc(C)c3nc21 | 0 | 1
O=C(NC1CCCCCCC1)c1sccc1S(=O)(=O)N1CCN(c2ccccc2)CC1 | 13 | 9
COc1cccc(C2c3cccn3CCCN2Cc2cccc(C)c2C)c1 (configuration not stated) | 13 | 15
COC(=O)c1ccc(N2C(=O)C(C)Oc3ccc([N+](=O)[O-])cc32)cc1 (configuration not stated) | 8 | 5
COc1ccc(-c2nn3c(N4CCCC4)cc(C)nc3c2C)cc1OC | 0 | -2
C=C(C)Cn1c(CCCCCCCCCCC)nc2ccccc21 | 0 | 0
FC(F)(F)CCc1ccnc(-c2ccc3c(c2)OCCO3)n1 | 6 | 4
CCCC(C)(C)C(=O)N1CCC1(C)C(=O)Nc1cccc2c1CCCC2 (configuration not stated) | 4 | 1
Cc1nc(SCc2cc(=O)n3ccsc3n2)c2c3c(sc2n1)CC(C)CC3 (configuration not stated) | 1 | -2
Cc1cccn2cc(CNC(=O)CCC(=O)Nc3ccccc3C(C)(C)C)nc12 | -7 | -10
CCC1CN(CCCn2cnc3c(N)ncnc32)CCN1CCOC (configuration not stated) | 6 | 4
COC1(OC)N=C(N)C2(C#N)C(c3ccc(SC)cc3)C12C#N (configuration not stated) | -1 | -5
CN(C)S(=O)(=O)N1CCC(n2nccc2NC(=O)Nc2ccccc2Cl)CC1 | 1 | -1
CN(C)c1ccc(NC(=O)Nc2ccccc2F)cc1C(=O)NCCc1ccccc1 | -4 | -1
CC(C)S(=O)(=O)NC(=O)C1(C)CCN1C(=O)Cc1ccc(-c2ccccc2)cc1 (configuration not stated) | 0 | -1
COC(=O)CN(C#N)c1nc(N(C)C)nc(N(C)C)n1 | 2 | -1
C=CCn1c(=S)sc2c(SC)nc(C)nc21 | 9 | 4
CCC1C(=O)NCCN1c1ncnc2c1nnn2-c1ccccc1 (configuration not stated) | 4 | -5
COC(=O)N(C)Cc1cccc(N2CCN(S(=O)(=O)c3cccc4ccccc34)CC2)c1F | 4 | 12
CCN1CCN(C(=O)Cn2ccsc2=NC(=O)c2cccc(OC)c2)CC1 | 3 | 2
COc1ccc(CN2CCN(Cc3nccs3)CC2CCO)c(C)c1C (configuration not stated) | 1 | -1
OCCN1CCN(Cn2c(=S)n(CN3CCN(CCO)CC3)c3ccccc32)CC1 | 4 | -2
COCCn1c(=NC(=O)c2ccc3ncsc3c2)sc2cc(OC)ccc21 | 4 | 5
COc1ccc(C(=O)N(Cc2ccccc2)C2CCC(NC(=O)C3CCN(C(=O)C4CCCCC4)CC3)CC2)cc1 (configuration not stated) | 4 | 11
CN(Cc1cnc(N)nc1)Cc1nnc(-c2ccccc2)o1 | 3 | 5
COc1ccc(OC)c(/C=C2\C(=N)N3N=C(C)SC3=NC2=O)c1 | 0 | -1
Cn1c(=O)c(C(=O)Nc2nc(-c3ccccc3)cs2)c(O)c2ccccc21 | 7 | 6
Cc1ccc(-n2nnnc2CNC(=O)c2ccc(S(=O)(=O)N(C)C)cc2)cc1C | -4 | -3
COc1ccc(OC)c(CN(Cc2ccc3c(c2)OCO3)Cc2nc(C(=O)NC(C)c3ccccc3)co2)c1 (configuration not stated) | 20 | 29

The listing continues:
SMILES | NPYLR7 ag | NPYLR7 ag max-min
O=C(CCc1cc2c(n1-c1ccc3c(c1)OCO3)-c1ccccc1CC2)NCc1c(F)cccc1Cl | 0 | -5
COC(=O)Cn1c(O)c(N=NC(=O)CNC(=O)c2ccc3c(c2)OCO3)c2ccccc21 | 9 | 14
CSCc1c(C(=O)Nc2nccs2)oc2ccccc12 | 6&20 | 6&19
CCC(c1ccccn1)N(C)Cc1ncc[nH]1 (configuration not stated) | 6 | 2
O=C(NCCc1c[nH]c2ccccc12)c1cn[nH]n1 | -5 | -12
O=C(Cc1n[nH]c(=O)c2ccccc12)OCc1nc2ccccc2c2ccccc12 | 2 | 1
NC(=O)Cc1csc(NC(=O)c2ccccc2Cc2ccccc2)n1 | 7 | 5
Cc1c(C)n2c3c(=O)[nH]c(=O)n(C)c3nc2n1CCCN(C)Cc1ccccc1 | -4 | -7
O=C(NC(=S)N1CCCCC1CO)C12CC3CC(CC(C3)C1)C2 (configuration not stated) | -3 | -3
CC(NC(=O)c1cc(C2CC2)n(C(C)(C)C)n1)c1ccccc1 (configuration not stated) | 0 | -2
Cc1[nH]cnc1CN1CCC(=O)NCC1C (configuration not stated) | -1 | -2
O=C(c1cc(C(F)(F)F)cc(C(F)(F)F)c1)N(CC(=O)N1CCc2sccc2C1c1ccc(Cl)cc1Cl)CC1CCCO1 (configuration not stated) | 14 | 20
CCOC(=O)CNc1c(-c2ccc(C(F)(F)F)cc2)nc2ccc(Br)cn12 | 22 | 30
CC(C)c1cccc(OCc2nc(C(=O)NCc3ccco3)cs2)c1 | 23 | 22
COc1ccccc1OC1CN(Cc2ccc(C(=O)O)cc2)C1 | 8 | 7
CCc1nnc(-c2cc3ccccc3n2CC(=O)Nc2ccc(C)cc2)o1 | -4 | -4
O=c1oc(-c2ccc(F)cc2)nn1Cc1cn2ccccc2n1 | 4 | 3
C=CCn1c(=O)c2c(nc3n2CC(C)=NN3Cc2ccccc2F)n(C)c1=O | -1 | -1
C/C=C/C(=O)N1CCCN(c2nc3cc(Cl)c(Cl)cc3nc2C(=O)OCC)CC1 | 10 | 1
Cc1cccc(S(=O)(=O)NC(=O)C2(C)CCN2C(=O)c2cccc(F)c2)c1 (configuration not stated) | 0 | -2
O=C(c1cc2n(n1)CCNC2)N1CCCC1Cn1cccn1 (configuration not stated) | 11 | -1
CCC(=O)N(c1nnc(SC(C)C(=O)NC2CCCC(C)C2C)s1)C1CC1 (configuration not stated) | 2 | 3

Bioassay records deposited in PubChem BioAssay by Fisher Drug Discovery Resource Center.
